Screening data as filed in PubChem.
ugtP null kill – growth inhibition of S. aureus ugtP deletion strain; S. aureus RN4220 ugtP deletion, OD600 growth, 16 h; some inactives read as strong as hits; 330,000 compounds, 0.54% hits; growth inhibition, % (test concentration not listed);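 active = z-score under -3 and OD600 up to 0.15 on both plates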;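 note: plate controls were untreated wells for no effect and antibiotic for full effect; wells of about 80 µL received 100 nL stock; the first replicate is given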
PrP 5UTR inh – inhibition of PrP 5' UTR reporter expression | cell-based PrP 5' UTR mRNA reporter, plate reader | inhibition, % (concentration not given with the values) | 340,000 compounds, 0.35% hits;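 active = every replicate at 50% or more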;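 note: 0 = median of the neutral control wells; tested in H4 reporter cells; numbers are from one replicate; inactives centre near -14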
Mtb hypoxia inh – Mtb hypoxia fluorescent reporter inhibition. 300,000 compounds, 0.1% hits. M. tuberculosis hypoxia-regulated fluorescent reporter, fluorescence. fluorescence inhibition, % (concentration not given with the values). AID 1159583;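 active = 35 to 45% if threefold the growth effect, above 45% if 1.5-fold the growth effect; inactive = the rest, general growth blockers included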;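 note: wells of about 50 µL received 100 nL stock; 0% = vehicle wells and 100% = reference inhibitor wells; whole bacteria with a GFP reporter of the hypoxia response; strong numbers were not always called active; many hits fall short of the cut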
Autofluor counter – counter-screen for toxin protease inhibitors: compound fluorescence | 360,000 compounds, 3.1% hits | compound autofluorescence counterscreen, microsphere flow cytometry; active compounds read high | fluorescence intensity (no concentration beside the values) | AID 624483;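 active = at least 3 SD above the mean of all compounds, about 16000 in these data; inconclusive = too few beads counted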;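 note: 100 nL of 1 mM stock went into each well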
Sa RN4220 lethal – S. aureus RN4220 growth inhibition; OD600, 16 h; inhibition, % (test concentration not listed); AID 1259311; 330,000 compounds, 0.33% hits;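 active = z-score of -3 or lower and OD600 up to 0.18 on both plates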;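 note: plate controls were untreated cells for no effect and reference antibiotic for full effect; stock transfer was 100 nL into about 80 µL; one replicate is shown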
BJeLR lethal – BJeLR cell viability loss; BJeLR (HRASV12) viability, CellTiter-Glo ATP luminescence, 48 h; reference of the scale not given here; inhibition, % (no concentration beside the values); 300,000 compounds, 0.17% hits;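 active = replicate mean above 50%; inconclusive = above 50% but judged a plate artefact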;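 note: 50 nL library stock added to about 25 µL; numbers are from one replicate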
Mtb hypoxia inh growth – second read-out of Mtb hypoxia inh, no call of its own (marks repeat the call); growth inhibition, %; measured here: M. tuberculosis growth (absorbance);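 0% = vehicle and 100% = reference antibiotic; read after six days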
* = called active by the depositor; ? = inconclusive; · = no result given.

mol	ugtP null kill	PrP 5UTR inh	Mtb hypoxia inh	Mtb hypoxia inh growth	Autofluor counter	Sa RN4220 lethal	BJeLR lethal
CC1Cc2ccccc2N1S(=O)(=O)c1ccc(Cl)nc1 (stereo unspecified)	-2	-15	17	1	4490	2.7	10
COc1cccc(C2C3=C(N=c4s/c(=C\c5cccc(O)c5)c(=O)n42)c2ccccc2CC3)c1OC (stereo unspecified)	·	-14	·	·	2286	·	-7
CNC(=O)c1c[nH]c2ccc(S(=O)(=O)Nc3cccc(SC)c3)cc2c1=O	-3	-13	-2	1	3751	3.0	2
COc1ccc(C(CNCC(O)COc2c(C)ccc(C)c2C)N(C)C)cc1 (stereo unspecified)	-3	-16	0	12	3804	-0.4	2
CC(=O)c1cc2c(cc1N)OCO2	9	-33	4	-6	22416*	4.1	4
COc1cc(/C=N/Nc2cc(C)nc(NS(=O)(=O)c3ccc(C)cc3)n2)ccc1O	·	-9	·	·	2028	·	-6
O=C(CN1C(=O)NC2(CCCCC2)C1=O)Nc1ccccc1Cl	4	18	7	3	10994	6.7	12
Cc1nc2c(C)cccc2c(SC(=N)N)c1CC=C(Cl)Cl	2	-16	-1	3	4413	0.5	-2
Cc1cc(N2C3CCC2CC(O)(c2ccc(F)cc2)C3)nc(-c2ccccc2)n1 (stereo unspecified)	-14	2	-9	-16	8537	-9.9	-2
COC(=O)CC1C(=O)NCCN1C(=O)CSc1nnnn1-c1ccc(Cl)cc1 (stereo unspecified)	14	-26	-2	-8	3212	2.1	3
CCC(C)CCN1C(N(C)C)=NC[C@@H]1CC(C)C (stereo partly specified)	7	-71	5	3	2907	9.6	·
Cc1nn(Cc2ccccc2)c(Cl)c1C(=O)OCC(=O)N1CCCC1	5	4	17	5	3994	2.5	14
O=C(CNC(=O)c1ccccc1)N/N=C/C=C/c1ccccc1	·	-20	·	·	6392	·	8
Cc1ccc(S(=O)(=O)N2CCC(C(=O)OCC(=O)NC3(C#N)CCCCC3)CC2)cc1C	3	-15	9	-3	?	2.9	7
O=C(CCc1ccccc1Cl)Nc1cccc(S(=O)(=O)N2CCCC2)c1	2	-1	9	-8	5450	-1.1	-3
CCn1c(C)nc2cc(C(=O)NNS(=O)(=O)c3c(F)cc(F)c(Cl)c3F)ccc21	6	2	5	7	3633	1.0	-1
Cc1cc(CNC(=O)C2(C(F)(F)F)CC(=CCc3ccccc3)CCCO2)nn1C (stereo unspecified)	4	·	12	7	·	8.7	·
O=C(OCC(=O)N1CCCCC1)c1cc(=O)[nH]c2ccccc12	-2	-15	-2	9	3776	-1.1	·
COc1ccc(N(CC(=O)NCCSC2CCCCC2)S(=O)(=O)c2ccccc2)cc1OC	0	-21	11	-28	·	-2.7	-8
CCC(N1CCOC1=O)S(=O)(=O)c1ccc(C)cc1 (stereo unspecified)	4	-8	·	·	4864	3.1	-3

Next section.
mol	ugtP null kill	PrP 5UTR inh	Mtb hypoxia inh	Mtb hypoxia inh growth	Autofluor counter	Sa RN4220 lethal	BJeLR lethal
O=C(Nc1nc2c(c(=O)[nH]1)CCCC2)C1CC1	4	-13	·	·	4255	3.5	-3
CC(=O)c1ccc(OCC(=O)Nc2cccc(C(=O)Nc3c(C)n(C)n(-c4ccccc4)c3=O)c2)cc1	5	-6	5	9	3836	3.4	·
COc1ccc(Oc2ncc(CN3CCN(c4ccccc4)CC3)s2)cc1	11	-7	9	-1	?	2.2	5
COCCCNC(=O)CC1C[C@H](C(=O)N2CCCCC2)[C@@]2(CCc3ccccc3)c3[nH]c4ccc(OC)cc4c3CCN2C1=O (stereo partly specified)	2	-13	-9	4	2919	1.3	·
COc1cccc2c(=O)n(CC(=O)NC3CCCC3)ccc12	13	-12	5	0	4842	-0.4	-4
Cc1ccc(C)c(C(=O)COC(=O)c2c(-c3ccccc3)noc2C)c1	16	-23	4	-5	?	3.9	·
CCN1CCN(c2ccc(Cl)cc2NC(=O)c2ccco2)CC1	0	5	1	6	8533	-0.4	·
CN1CCN(C(=O)c2ccc3c(c2)N(Cc2cccc(Cl)c2)C(=O)c2ccccc2S3=O)CC1 (stereo unspecified)	11	-8	·	·	6374	2.6	-1
COc1cc(C=NNC(=O)C(=O)NCC2CCCO2)ccc1OCC(=O)N1CCOCC1 (stereo unspecified)	-2	·	0	5	·	4.6	·
O=C(NCC1CCCO1)c1cc(-c2ccco2)nc2ccccc12 (stereo unspecified)	2	-2	3	3	4110	2.8	3
COC(=O)c1cc(C#N)c(N2CCN(C)CC2)nc1C	3	-52	5	4	4646	3.5	-1
COc1ccc(CCNC(=O)C(=O)NCC2OCCN2S(=O)(=O)c2ccc(OC)c(OC)c2)cc1 (stereo unspecified)	-9	-11	-1	11	4717	-13	-10
O=C(Cc1ccccc1)NN1C(=O)C2C(C1=O)C1C=CC2C12CC2 (stereo unspecified)	4	-13	4	-1	1926	7.6	2
O=C(/C=C/c1ccccc1)NCC(=O)N/N=C/c1cccs1	·	1	·	·	?	·	-13
COc1cc(C2C(C(=O)c3ccco3)=C(O)C(=O)N2CCc2ccccc2)ccc1O (stereo unspecified)	6	-8	6	5	3161	1.9	11
CS(=O)(=O)c1cnc(-c2ccccc2)nc1Oc1ccc(F)cc1	-2	-6	·	·	2862	-0.6	3
COc1cccc(/C=N/NC(=O)c2ccccc2N(Cc2ccccc2)S(=O)(=O)c2ccccc2)c1OC	·	-43	·	·	2894	·	-2
COc1ccc(/C=C/C(=O)OCC(=O)NCc2ccccc2Cl)cc1OC	2	-13	-2	1	3903	3.6	·
CC(C)(C)NC(=O)CN1CCC(O)(c2ccc3c(c2)OCO3)CC1	2	-2	6	11	2763	3.5	-4
CCCCC(=O)NC1(C(F)(F)F)NC(=O)N(Cc2ccccc2)C1=O (stereo unspecified)	3	-23	8	2	3902	-1.3	2

In the list so far, these have an aryl thioether with sulfur outside any ring.
mol	ugtP null kill	PrP 5UTR inh	Mtb hypoxia inh	Mtb hypoxia inh growth	Autofluor counter	Sa RN4220 lethal	BJeLR lethal
CNC(=O)c1c[nH]c2ccc(S(=O)(=O)Nc3cccc(SC)c3)cc2c1=O	-3	-13	-2	1	3751	3.0	2
COC(=O)CC1C(=O)NCCN1C(=O)CSc1nnnn1-c1ccc(Cl)cc1 (stereo unspecified)	14	-26	-2	-8	3212	2.1	3

Going on with the list:
mol	ugtP null kill	PrP 5UTR inh	Mtb hypoxia inh	Mtb hypoxia inh growth	Autofluor counter	Sa RN4220 lethal	BJeLR lethal
CN(C)C=Nc1sc2c(c1C#N)CCC2	-2	·	11	8	·	9.5	·
CC(C)NC1(C(N)=O)CCNCC1	5	-18	13	12	3740	0.7	·
O=C(Cc1ccc(F)cc1)Nc1nccs1	12	-18	6	0	2990	5.3	-13
CCCCNC(=O)c1ccc(CNS(=O)(=O)c2ccc(Br)cc2)cc1	4	-19	6	2	4258	0.8	1
Cc1cc(=O)oc2c(CN3CCCC3)c(O)c(Cl)cc12	7	-20	19	8	3914	4.5	14
Cc1cccc(NC(=O)c2c([N+](=O)[O-])cnn2C)c1	1	-6	-6	-4	3435	4.7	0
CCN(CC)S(=O)(=O)c1ccc(N=NC2=C(O)CC(C)(C)CC2=O)cc1	3	-29	10	9	2417	0.9	-9
Nc1cc(N)nc(SCC(=O)NC2CCCCCCC2)n1	7	41	-5	-8	·	3.1	·
CCN1c2ccccc2-c2nc3ccccc3n2C1c1ccccn1 (stereo unspecified)	18	6	11	17	2346	-2.2	1
COc1ccc(C(=O)NNC(=O)C(=O)Nc2cccc3ccccc23)cc1	4	-27	-2	2	3048	-1.0	9
Fc1ccc(-[n+]2nc(Nc3ccccc3)sc2-c2cccc(Cl)c2Cl)cc1	·	-32	·	·	3797	·	0
CC(CNS(=O)(=O)c1ccc2c(c1)NC(=O)CCS2)c1ccccc1 (stereo unspecified)	-1	-20	6	6	4881	4.4	1
CCOC(=O)c1sc(=NC(=O)c2cccc(C)c2)n(C)c1C	6	-88	18	8	4102	6.0	1
CC(=O)c1c(COC(=O)c2ccc(C)cc2)nc2ccccc2[n+]1[O-]	0	·	8	3	3121	5.1	-8
COC(=O)c1ccccc1-n1c(C)nc2ccccc2c1=O	2	-2	·	·	2682	5.0	·
Cc1ccccc1C(=O)NC1CCN(C(=O)N(c2ccccc2)c2ccccc2)CC1	7	-20	·	·	4834	0.0	-3
COCCSc1ccccc1C(=O)N1CCN(Cc2ccc3c(c2)OCO3)CC1	16	-37	7	-2	11309	-2.3	3
CC(Sc1nc2ccccc2c(=O)n1CC1CCCO1)C(=O)NC(C)c1ccccc1 (stereo unspecified)	-2	-28	11	3	?	2.9	5
Cc1ccc(/C=N/NC(=O)c2cc(-c3ccc(C)o3)[nH]n2)cc1	·	-6	·	·	7254	·	7
Cc1[nH]nc2c1C1(CCC3(CC1)OCCO3)C(C#N)=C(N)O2	1	-6	-4	3	9301	2.9	5

The list continues:
mol	ugtP null kill	PrP 5UTR inh	Mtb hypoxia inh	Mtb hypoxia inh growth	Autofluor counter	Sa RN4220 lethal	BJeLR lethal
Cc1ccc(S(=O)(=O)NNC(=O)c2cc([N+](=O)[O-])c(C)c([N+](=O)[O-])c2)cc1	4	·	23	41	7024	-0.7	-3
COc1ccccc1OCC(=O)OCC(=O)Nc1ncc(Cl)cc1Cl	-7	-19	·	·	2945	-0.6	-5
CCn1c(CN2CCCCCC2=O)nnc1SCc1cnc(-c2ccccc2)s1	-4	-2	2	19	9301	1.8	-9
c1coc(CSc2ncnc3c2oc2ccccc23)c1	12	-78	10	-3	4451	8.2	2
COc1ccc(OCC(=O)N/N=C/c2ccc(OC)c(OC)c2C(=O)O)cc1	·	-5	·	·	2450	·	-16
CCN1CCN(S(=O)(=O)c2ccc(Cl)c(C(=O)NCc3nc4ccccc4[nH]3)c2)CC1	4	4	2	5	4092	3.5	·
O=C(NS(=O)(=O)Nc1ccc(Cl)cc1)c1c[nH]c2ccccc12	3	3	-9	0	5462	6.5	9
CCCCOC(=O)CNc1nnc(SCC(=O)OCC)[nH]c1=O	6	-9	·	·	5979	-6.3	5
C1CCN(c2c3c(nc4nnnn24)CCCC3)CC1	0	-2	6	9	2492	1.7	3
Cc1ccccc1N=C1NN=C(c2ccccc2F)CS1	-3	-64	1	-10	2007	5.5	-4
O=C(c1cc2c(ccc3ccccc32)oc1=O)N1CCN(CCO)CC1	4	-9	·	·	6395	0.2	7
O=C(COc1ccccc1Cl)NC(=S)Nc1cccc(NC(=O)c2ccccc2Cl)c1	-20	-18	11	6	8016	-5.3	0
CCOCCn1c(-c2ccc(OC)cc2)nc2ccccc21	9	-14	9	8	5700	6.0	1
C[C@H]1CC[C@]2(O[C@H](CCO)C[C@H](O)[C@H]2O)O1	·	-10	·	·	4034	·	-11
O=C(CSc1cccc2cccnc12)NCc1ccco1	7	-8	·	·	4264	1.3	-1
CC(CCC1CC(C)OC1=O)=NNc1nc(-c2ccccc2)cs1 (stereo unspecified)	2	·	-4	-7	·	8.8	·
COc1cc(C(=O)OCC(=O)Nc2ccc(N3CCOCC3)cc2)ccc1OCC(C)C	3	-15	5	8	?	2.5	1
COc1cc(NC(=O)C2Cc3ccccc3CN2S(C)(=O)=O)cc(OC)c1 (stereo unspecified)	13	5	10	2	3244	0.6	-1
O=C(Nc1cccc(NC(=O)C2CCCO2)c1)c1ccco1 (stereo unspecified)	1	7	-1	1	2429	2.8	14
COC(=O)c1cc(COc2ccc3c(c2)oc(=O)c2ccccc23)c(C)o1	-12	-22	·	·	2227	-1.2	13

(next part)
mol	ugtP null kill	PrP 5UTR inh	Mtb hypoxia inh	Mtb hypoxia inh growth	Autofluor counter	Sa RN4220 lethal	BJeLR lethal
CCN(CC(=O)NCc1cccs1)S(=O)(=O)c1c(F)cccc1F	8	-12	9	10	3365	4.3	·
CCOc1ccc(N2C(=O)CC(Sc3nnnn3-c3ccccc3)C2=O)cc1 (stereo unspecified)	12	-20	10	11	2477	5.8	3
CCCCCn1c(=O)[nH]c2c(c1=O)CCC2	10	-33	·	·	2393	5.0	-5
CCc1ccc(OCC(=O)N2CCN(CC(=O)Nc3ccccc3Cl)CC2)cc1	7	-17	-8	0	3699	2.3	·
CCO/N=C(/C)c1c(O)cc(C(C)(C)C)n(-c2ccccc2)c1=O	·	-8	·	·	2599	·	-3
CC(C)Nc1nc(Cl)nc(Nc2ccccc2)n1	-3	-37	-5	6	3560	3.0	6
Cc1ccc(C(=O)NCC(=O)Nc2ccncc2)cc1C	1	-5	-2	-8	4510	0.7	0
